Mtb growth: M. tuberculosis H37Rv growth inhibitors, H37Rv strain (AID 1626); M. tuberculosis H37Rv growth inhibition; higher % means a stronger effect; inhibition, % at 10 µM, or IC50 in µM where a hit was titrated; 220,000 tested, 0.95% active;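 active = confirmed in a dose series; inconclusive = inhibition above 80% but not taken into the dose series; inactive = below 80% or under 30% at every dose of the series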;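 note: bacteria incubated seven days before Alamar blue readout; 0% = bacteria only wells and 100% = bacteria with antibiotic wells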
Mtb betalactam: beta-lactam sensitization of Mtb H37Rv, H37Rv | inhibition, % at 25 µM | 330,000 tested, 0.27% active | AID 434955, 2010 | M. tuberculosis H37Rv growth with meropenem, percent inhibition; hits of this screen are not shown here;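 active = about 74% or more and at least 40 points above the plate without the antibiotic, then above 30% in a dose series; inconclusive = first-round hits that could not be retested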;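 note: growth measured after seven days incubation then overnight dye step; 0% = bacteria only wells and 100% = bacteria with antibiotic; twin plates without the antibiotic show which effects depend on it; some results filed as inactive read as strong as hits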
YopH inh: YopH tyrosine phosphatase inhibitors, primary screen, biochemical, fluorescence Ex485/Em525; YopH tyrosine phosphatase [Yersinia enterocolitica]; inhibition, %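 (about 10 µM by stock and volumes)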; 140,000 tested, 0.16% active;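 active = inhibition of 50% or more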;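 note: controls were vehicle for no effect and minimum signal wells for full effect; inactives centre near -20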
RecA splice inh: Mtb RecA intein splicing inhibitors, primary screen, biochemical, fluorescence, HTS; Protein RecA (Mycobacterium tuberculosis (strain ATCC 25618 / H37Rv)), P9WHJ3; cell-free RecA intein splicing; inhibition, %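 (about 9 µM by stock and volumes)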; 290,000 tested, 0.75% active; AID 2221, 2009; in the data active = inhibition above about 30%; inconclusive = no clear call, values can overlap the other calls;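 note: 0% = vehicle wells and 100% = reference inhibitor control wells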
Target sequence (P9WHJ3 whole entry, looked up, canonical isoform): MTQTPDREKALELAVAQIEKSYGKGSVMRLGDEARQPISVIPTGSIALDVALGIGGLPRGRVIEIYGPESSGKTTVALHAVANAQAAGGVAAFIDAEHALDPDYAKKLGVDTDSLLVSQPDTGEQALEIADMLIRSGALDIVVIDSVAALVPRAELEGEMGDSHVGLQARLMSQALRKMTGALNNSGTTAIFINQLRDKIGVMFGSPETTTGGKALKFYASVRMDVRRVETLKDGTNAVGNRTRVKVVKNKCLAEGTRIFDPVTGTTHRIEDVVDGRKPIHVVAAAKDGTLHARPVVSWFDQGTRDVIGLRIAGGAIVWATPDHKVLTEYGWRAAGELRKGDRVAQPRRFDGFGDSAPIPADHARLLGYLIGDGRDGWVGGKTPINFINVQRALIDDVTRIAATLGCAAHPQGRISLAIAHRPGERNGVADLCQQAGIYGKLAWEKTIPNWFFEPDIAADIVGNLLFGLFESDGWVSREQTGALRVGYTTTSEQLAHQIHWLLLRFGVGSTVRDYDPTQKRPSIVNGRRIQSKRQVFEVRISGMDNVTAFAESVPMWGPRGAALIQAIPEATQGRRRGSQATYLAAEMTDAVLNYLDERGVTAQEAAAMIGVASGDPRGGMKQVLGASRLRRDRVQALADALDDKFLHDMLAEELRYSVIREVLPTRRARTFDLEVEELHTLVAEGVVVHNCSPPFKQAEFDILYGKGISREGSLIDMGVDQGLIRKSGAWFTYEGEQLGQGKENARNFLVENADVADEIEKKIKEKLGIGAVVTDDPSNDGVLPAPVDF
Arbovirus anti: antivirals against arbovirus infection, primary screen, cell-based, full library, 10K replicate subset; arbovirus infection cell-based antiviral screen; inhibition, % at 10 µM; 200,000 tested, 0.37% active;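 active = inhibition from about 30%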;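 note: bluetongue infection of BSR cells; cell survival read as ATP light after 72 h; 0% = infected wells without compound and 100% = uninfected wells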
Arbovirus anti repeat: second read-out of Arbovirus anti, no call of its own (marks repeat the call); inhibition, %; measured here: 10K subset replicate screen; many hits read low in the repeat;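 first of two repeat runs on a subset; 0% = infected and 100% = uninfected wells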
An asterisk follows results filed as active; ? = inconclusive; nt = not tested or not shown. Only part of the results is shown, so the mix of outcomes need not match the whole.

SMILES | Mtb growth | Mtb betalactam | YopH inh | RecA splice inh | Arbovirus anti | others
O=C(Nc1nccs1)C1Cc2ccccc2CN1S(=O)(=O)c1ccc(F)cc1 (stereo not given) | 1% | -1 | 17 | 1.7 | -3
COc1ccc(OC)c(NC(=O)CSc2nnc(Cn3c(=O)sc4ccccc43)n2C)c1 | 1% | 0 | -36 | nt | -4 | Arbovirus anti repeat=-1
COc1ccc(/C=C/C(=O)NCCCN2CCCC2)cc1 | nt | -8 | nt | -1.3 | nt
CC(=O)Nc1ccc(Nc2nc(Cl)nc(Nc3ccc(NC(C)=O)cc3)n2)cc1 | -2% | 4 | nt | -1.4 | 5
COc1ccc(-c2noc(CN(C)C(=O)Nc3ccccc3)n2)cc1 | 8% | 1 | nt | 1.8 | -2
FC(F)c1nnc2c(Cl)cc(C(F)(F)F)cn12 | -3% | 0 | nt | -1.7 | 0
O=C(O)/C=C/C(=O)Nc1ccccc1SC(F)(F)F | -1% | 6 | -25 | 4.0 | -2
NC(=O)c1c(NC(=O)CN2CCCC2)sc2c1CCCC2 | -1% | 14 | -5 | -0.7 | 4
Cc1cc(C)c(S(=O)(=O)NCc2ccc3c(c2)OCO3)cc1C | nt | 0 | nt | 2.1 | nt
C=CCNC(=O)c1ccccc1NC(=O)c1ccc(Cl)c(S(=O)(=O)Nc2cc(C)ccc2C)c1 | 0% | 2 | -7 | -1.9 | -18
Cc1nnc(SCC(=O)NC(=O)NC(C)(C)C)n1N | -3% | 2 | -16 | 1.2 | -1
Cc1cc(=O)oc(C)c1C(=O)NCCCN1C(C)CCCC1C (stereo not given) | 2% | -9 | -25 | -0.5 | 17
C[C@H](NC(=O)c1ccccc1F)C(=O)N1CCC2(CC1)NCCc1[nH]cnc12 | nt | 0 | nt | 2.3 | nt
CCCC(=O)Nc1ccc(-c2cn3cccnc3n2)cc1 | nt | -7 | nt | -2.4 | nt
COCC(C)NCc1cccc(OC)c1OC (stereo not given) | -6% | -5 | -14 | 0.8 | 11
CN(CCc1ccccn1)C1CCCN(S(=O)(=O)c2ccccc2)C1 (stereo not given) | nt | -7 | nt | 0.7 | nt
Cc1ccc(NC(=O)Nc2ccon2)cc1Cl | nt | -5 | nt | 2.9 | nt
COc1ccccc1Nc1nc(N)nc(CN2CC(C)CC(C)C2)n1 (stereo not given) | 76% | 57 | nt | 1.1 | -3
O=C(NCc1ccccc1)C1CCCC1 | nt | 6 | nt | -1.7 | nt
Cn1c(=O)oc2cc(S(=O)(=O)NCCC(=O)N3CCc4ccccc4C3)ccc21 | -7% | -4 | -11 | 1.6 | 9
Cc1ccc(C(=O)Nc2ccc(C)c(S(=O)(=O)N(C)C)c2)s1 | -1% | 1 | -32 | 0.5 | -5
O=C(c1ccc(Oc2ccc(C(F)(F)F)cn2)cc1)N1CCN(c2ccccc2)CC1 | 5% | 60 | -29 | 3.7 | 1
CC(=O)NN1C(=O)c2ccccc2NC1c1ccccc1 (stereo not given) | nt | 1 | nt | -1.3 | nt
CCOC(=O)c1c(C)n2c3c(cc(C)cc13)CCC2 | 3% | 13 | nt | 1.0 | -1
O=c1[nH]c(=S)[nH]c(O)c1N=Nc1ccc2c(c1)OCCO2 | 26% | 77 | nt | -6.8 | nt
COC(=O)c1ccc(COC(=O)CNC(=O)c2ccco2)cc1 | -10% | -1 | -4 | 0.5 | 4
O=C(N1CCN(c2cccc(Cl)c2)CC1)C1(S(=O)(=O)c2ccc(Cl)cc2)CC1 | -8% | 9 | 7 | nt | 5
CCCn1nc(C(=O)NNC(=O)CSCC(=O)Nc2cc(C)on2)c2ccccc2c1=O | nt | -11 | nt | 1.7 | nt
CCCCc1nc2cc(C(=O)NC3CCOC(C)(C)C3)ccc2o1 (stereo not given) | nt | -2 | nt | -8.0 | nt
COc1cc(C2SCC(=O)N2CCN2CCCCC2)ccc1O (stereo not given) | -6% | -1 | nt | -4.4 | 4
Cc1nc(-c2ccc(S(=O)(=O)Nc3cc(S(=O)(=O)N(C)C)ccc3C)s2)cs1 | -12% | -2 | nt | 4.2 | nt
CCOc1ccc(NC(=O)CSc2nc3nc4c(cc3c(=O)n2CC)COC(C)(C)C4)cc1 | 5% | -8 | nt | -3.7 | nt
CCc1nnc(NC(=O)c2ccc(COc3ccccc3C)o2)s1 | nt | -3 | nt | -0.5 | nt
COCOc1ccc(-c2oc3c(C/C=C(\C)CCC=C(C)C)ccc(O)c3c(=O)c2OCOC)c(OCOC)c1 | -9% | 5 | nt | -0.4 | nt
O=C(Nc1ccccc1C(=O)O)c1ccc(Br)o1 | 15% | -1 | -44 | -2.1 | 15
COc1ccc(CNC(=O)COC(=O)[C@H](Cc2c[nH]c3ccccc23)NC(=O)c2cccs2)cc1 | -15% | 1 | -23 | 7.4 | -21
CCC(=O)C(CCN1CCOCC1)(c1ccccc1)c1ccccc1 | nt | -5 | nt | 4.0 | nt
O=C(NCCC1=CCCCC1)c1ccc([N+](=O)[O-])cc1 | -1% | -1 | -21 | 0.9 | -4
CC(C)CC(=O)N1CCN(Cc2ccccc2Br)CC1 | nt | -13 | nt | -2.8 | nt
CCNC(=S)N/N=C/c1ccc(-c2ccccc2)o1 | 18% | 1 | -27 | 0.1 | -9
Cc1nn(Cc2ccccc2)c2c1C(c1ccc(Cl)cc1)C(C#N)=C(N)O2 (stereo not given) | -3% | 3 | -12 | 60* | 0
CC1=C(C(=O)OCC(C)C)C(c2cc3c(cc2Br)OCO3)NC(=O)N1C (stereo not given) | -12% | -2 | -10 | 8.4 | 9 | Arbovirus anti repeat=7
O=C(Nc1nc(-c2cc(F)ccc2F)cs1)C1=NN(c2ccccc2)C(=O)CC1 | 8% | 0 | nt | 1.4 | 10
CCN(CC)CCCNc1oc(-c2cccc(Cl)c2)nc1C#N | -4% | -12 | -12 | 0.2 | -13
CCCCn1c(N)c(N(CCOC)C(=O)CCCc2nc3ccccc3c(=O)[nH]2)c(=O)[nH]c1=O | nt | -4 | nt | -0.1 | nt
O=C(CCc1ccccc1Cl)NC1CCCN(c2ccc(C(F)(F)F)cn2)C1 (stereo not given) | nt | -3 | nt | 1.8 | nt
Cc1c(C)n(CC(O)CN2CCOCC2)c2ccccc12 (stereo not given) | -2% | 0 | -20 | -1.8 | 1
O=C(CSc1ccccc1Cl)c1ccco1 | 2% | 78 | -19 | -0.6 | -14
CC(OC(=O)C1CCCCC1)C(=O)Nc1cccc(Cl)c1 (stereo not given) | 1% | -10 | nt | 1.4 | 21
O=C(c1ccco1)N1CCC(n2nnc3ccccc32)CC1 | -1% | -5 | -8 | 3.5 | 2
Cc1ccc(C)c(C(=O)CCC(=O)NNC(=O)Cn2nc(C)cc2C)c1 | nt | -7 | nt | 0.3 | nt
C=CCON1C(=O)C(=O)N(OCC=C)[C@H]2CCCC[C@H]21 | -3% | -5 | nt | 7.2 | nt
C#CC(CC)(CC)NC(=S)Nc1cccc(C(C)=O)c1 | 10% | 8 | -27 | -1.0 | 4
OCCN1CCN(C(=S)c2ccc(-c3ccccc3)cc2)CC1 | 1% | 5 | nt | 0.7 | nt
CCOc1ccccc1N(C(=O)CNC(=O)c1ccco1)C(C(=O)NC(C)(C)C)c1ccncc1 (stereo not given) | -13% | 0 | -54 | 1.1 | 2
CC(C)CNC(=O)C(=O)Nc1ccc2c(c1)N(S(=O)(=O)c1cccs1)CCC2 | nt | -6 | nt | 1.3 | nt
Cc1ccc(OC(=O)c2c(C)nn(-c3ccccc3)c2C)cc1 | -5% | 8 | nt | 10 | nt
COc1ccc2occ(C(=O)c3cccs3)c2c1 | -14% | 3 | -22 | 5.4 | 3
C=CCNC(=O)c1onc(CSc2cccc(OC)c2)c1C(=O)O | 6% | 4 | -76 | -0.6 | -2
CCC(C)NCC(=O)Nc1sc2c(c1C(N)=O)CCC2 (stereo not given) | 1% | 54 | -48 | -2.2 | 7

In the list so far, these contain an NH in an aromatic ring:
SMILES | Mtb growth | Mtb betalactam | YopH inh | RecA splice inh | Arbovirus anti | others
C[C@H](NC(=O)c1ccccc1F)C(=O)N1CCC2(CC1)NCCc1[nH]cnc12 | nt | 0 | nt | 2.3 | nt
O=c1[nH]c(=S)[nH]c(O)c1N=Nc1ccc2c(c1)OCCO2 | 26% | 77 | nt | -6.8 | nt
COc1ccc(CNC(=O)COC(=O)[C@H](Cc2c[nH]c3ccccc23)NC(=O)c2cccs2)cc1 | -15% | 1 | -23 | 7.4 | -21
CCCCn1c(N)c(N(CCOC)C(=O)CCCc2nc3ccccc3c(=O)[nH]2)c(=O)[nH]c1=O | nt | -4 | nt | -0.1 | nt

3 entries from above, ordered by SMILES length, ascending:
SMILES | Mtb growth | Mtb betalactam | YopH inh | RecA splice inh | Arbovirus anti | others
Cc1cc(=O)oc(C)c1C(=O)NCCCN1C(C)CCCC1C (stereo not given) | 2% | -9 | -25 | -0.5 | 17
C=CCNC(=O)c1onc(CSc2cccc(OC)c2)c1C(=O)O | 6% | 4 | -76 | -0.6 | -2
O=C(Nc1nc(-c2cc(F)ccc2F)cs1)C1=NN(c2ccccc2)C(=O)CC1 | 8% | 0 | nt | 1.4 | 10

(next part)
SMILES | Mtb growth | Mtb betalactam | YopH inh | RecA splice inh | Arbovirus anti | others
Cc1cc2[nH]c3c(c[n+](C)c4ccccc34)c2cc1C | ? | 100 | nt | -12 | -36
O=C(Nc1cccc(NC(=O)c2ccco2)c1)c1cnccn1 | -8% | -12 | -1 | 2.5 | 3
CCN(CC)CCn1nc2c3c(cccc3c1=O)-c1ccccc1-2 | 2% | 22 | nt | -3.7 | -21
CCOC(=O)c1c(C)[nH]c(C)c1C(=O)COC(=O)c1cc(OC)c(OC)cc1OC | 0% | -1 | nt | -0.7 | 5
COC(=O)c1ccc(N)c(N=CC2=C(O)CC(C)(C)CC2=O)c1 | 99% | 89 | -24 | -1.6 | -6
CCOC(=O)CC(=O)CSc1nc2c(c(-c3cccs3)c1C#N)CCC2 | -4% | 18 | 3 | -5.4 | 10
Clc1cccc(NCc2nnc(SCc3ccc(Cl)cc3Cl)o2)c1 | 12% | 91 | -27 | 22 | -11
Cc1ccccc1N1C(S)=C(C#N)C(=O)NC1c1ccco1 (stereo not given) | 1% | -10 | nt | 5.4 | 0
Fc1ccc(CSc2ccc3nnc(-c4ccccn4)n3n2)cc1 | 7% | 14 | nt | 4.8 | 9
COC(=O)CN1C(=S)N(c2ccc(OC)cc2)C(=O)C1CC(=O)Nc1ccc(F)cc1 (stereo not given) | -11% | 4 | nt | 0.4 | -3
CCN1C(=O)[C@H]2[C@@H](c3ccc(-c4ccc5c(c4)OCO5)c(OC)c3)N[C@@](Cc3ccccc3)(C(=O)OC)[C@H]2C1=O | nt | -11 | nt | 9.3 | nt
CCCCC1C(C#N)=C(C)NC2=C1C(=O)CC(C)(C)C2 (stereo not given) | 1% | -5 | 9 | -97 | -2
CC1CCCCN1S(=O)(=O)c1ccc(C(=O)Nc2nnc(-c3ccccc3Cl)o2)cc1 (stereo not given) | nt | 92 | 12 | -0.4 | -9
O=C(NNC(=O)c1ccc(O)cc1O)c1ccc(-c2ccccc2)cc1 | nt | -8 | nt | 1.2 | nt
COc1ccc(CCNC(=O)C2CC(=O)N(c3ccc(C(C)(C)C)cc3)C2)cc1OC (stereo not given) | -1% | 0 | nt | 1.2 | -2
Cc1ccc(NC(=O)c2ccc(=O)n(CC(=O)Nc3ccccc3)n2)cc1 | nt | 6 | nt | -2.1 | nt
CCCn1c(C2CC(=O)N(c3cc(OC)ccc3OC)C2)nc2ccccc21 (stereo not given) | -4% | 3 | -15 | 1.7 | -5 | Arbovirus anti repeat=-1
CC(C)c1ccc(-c2c(C#N)c(N)nc(SCC(=O)N3CCCCC3)c2C#N)cc1 | -13% | -8 | -26 | 2.2 | -4
CCOC(=O)N1CCN(C(=O)Nc2cccc3ccccc23)CC1 | -5% | 4 | nt | 0.6 | -4
COC(=O)c1cc(S(=O)(=O)N2CCCCC2)ccc1N1CCOCC1 | nt | -1 | nt | 0.1 | nt
N#CC(c1ccccc1)c1ccc2c(C(F)(F)F)cc(C(F)(F)F)nc2n1 (stereo not given) | -12% | -5 | -24 | 2.2 | -21
CCOP(=O)(OCC)c1nc(Cc2ccccc2)oc1NCc1ccccc1 | -1% | 3 | nt | -0.1 | nt
CCOC(=O)C(NC(=O)c1ccccc1OCC)(Nc1ncccn1)C(F)(F)F (stereo not given) | -2% | -8 | -43 | 0.7 | 0
COc1ccc(CCNC(=O)c2ccc(N(C)S(=O)(=O)c3ccccc3)cc2)cc1 | 8% | 7 | nt | -0.8 | nt
NS(=O)(=O)c1ccc(CCNC(=O)C2CCCO2)cc1 (stereo not given) | nt | 0 | nt | 0.2 | nt

Screening results: PubChem, several laboratories
